# Screening results as filed in PubChem.
# VACV mCherry inh – vaccinia inhibition (mCherry reporter). Vaccinia virus mCherry reporter infection, fluorescence; about a quarter of the inactives have no number. Potency, µM (titrated, usually from 36.5 µM), inactives show at the highest dose activity change, negative = inhibition, hits mostly inhibitors. 0.63% of 310,000 active; active = well fitted inhibition curve with a large enough effect; inconclusive = small, poorly fitted or top-dose-only effect; inactive = no such curve, though single readings can be large or run the other way; tested in A549 cells; further: nearly all actives have a fitted effect of over 35% in size; inactives centre near -10
# Vaccinia Venus – inhibitors of vaccinia virus (Venus reporter); Vaccinia virus Venus reporter expression, fluorescence; Potency, µM (top dose mostly 36.5 µM), without a hit: at the top dose activity change, negative = inhibition, actives largely listed as inhibitors; 0.46% of 330,000 active; active means well fitted inhibition curve with a large enough effect; inconclusive means small, poorly fitted or top-dose-only effect; inactive means no such curve, though single readings can be large or run the other way; tested in A549 cells; further: nearly all actives have a fitted effect of over 30% in size; inactives centre near -10
# Active calls of the source: *; i = inactive; u = inconclusive; x = no result given; [ ] = remark or other dose. On the % scale 0 is the no-effect control and ±100 the full control effect; potency means the concentration at half of the fitted maximal effect.
SMILES,VACV mCherry inh,Vaccinia Venus
Cc1oc(-c2cccc(Br)c2)nc1Cn1c(SCc2cccc(F)c2)nc2cccnc21,-4%,-8%
COc1cccc(/C=N/NC(=O)c2ccc3nc[nH]c3c2)c1O,u,-3%
CCOc1ccc(/C=C(\C#N)C(=O)Nc2sc3c(c2C(=O)OC)C(C(=O)OC)CC3)cc1OC (configuration not stated),-4%,-3%
C[C@H]1[C@H](C)CC[C@]2(C(=O)O)CC[C@]3(C)C(=CC[C@@H]4[C@@]5(C)C[C@@H](O)[C@H](O)C(C)(C)[C@@H]5CC[C@]43C)[C@H]12,u,13µM*
COc1ccc(-c2sc3ccccc3c2C#CC2(O)CCCCC2)cc1,i,-18%
COc1ccc(CCNC(=S)N(C)C)cc1OC,i,-10%
O=C(CCCCCCC(=O)NCc1ccccc1)NCc1ccccc1,i,2%
O=C(NC1CCCCC1)N1CCC(n2c(=O)[nH]c3ccccc32)CC1,i,-2%
CCOc1ccc(CCN2C(=O)C(=O)N([C@@H](Cc3ccccc3)CN3CCC[C@H]3CN3C(=O)C(=O)NC[C@@H]3Cc3ccccc3)C[C@@H]2Cc2ccc(O)cc2)cc1,-24%,-22%
Cc1ccoc1C(=O)NCCNc1ccc(Cl)cc1[N+](=O)[O-],-16%,-15%
O=C(Nc1nnc([C@H]2C[C@H](O)[C@@H](CO)O2)s1)Nc1ccccc1Oc1ccccc1,i,-8%
O=C(O)C1CCCCC1C(=O)Nc1ccc(F)c(F)c1 (configuration not stated),-11%,-13%
CCOC(=O)CCCCC(=O)c1[nH]c(=O)[nH]c1CN1CCOCC1,-3%,2%
COc1ccc(Br)c(C(=O)OCC(=O)NC2CCCCCCC2)c1,i,-6%
O=C(C1=C(O)C(=O)N(CCN2CCOCC2)C1c1ccc([N+](=O)[O-])cc1)c1cccs1 (configuration not stated),i,-15%
Cc1cc(NC(=O)CSc2nnc(Cn3c(=O)sc4ccccc43)n2-c2ccccc2C)no1,1%,1%
Cc1ccc(C)n1-c1cc([N+](=O)[O-])ccc1-n1ccnc1,-11%,-11%
CC(/C=N/NC(=O)c1ccco1)=C\c1ccccc1,-7%,-5%
CC(=O)c1ccc(S(=O)(=O)N(C)CC(=O)NCC2CCCCC2)cc1,-15%,-18%
CCc1ccc(C(=O)c2ccccc2C(=O)O)s1,-2%,-18%
COC(=O)C1=C(c2ccc(F)cc2F)C[C@@H]2CC[C@H]1N2C(=O)NCCO,-2%,-4%
CSc1nccc(NC(=O)c2cccc(Br)c2)n1,i,-19%
O=C(NCc1ccc(Cl)cc1)c1ccc(CSCc2cccc(Cl)c2)o1,-17%,-6%
CCN(CC)S(=O)(=O)c1cc(NC(=O)c2cc([N+](=O)[O-])ccc2N2CCOCC2)ccc1C,-1%,-18%
Cc1cc(C)cc(-n2ccnc2SCC(=O)Nc2ccc3c(c2)OCCO3)c1,x,-27%

# Continuation:
SMILES,VACV mCherry inh,Vaccinia Venus
O=C1NC(=S)NC1(c1ccccc1)c1ccccc1,-17%,-8%
Cc1cc(-c2nnc(SCC(=O)NC3CC3)n2C(C)C)cs1,-4%,-17%
Cc1cccc2c(=O)c(C(=O)NCCc3ccccc3)c[nH]c12,i,-8%
O=C1c2ccccc2-c2c1c1ccccc1c(=O)n2-c1ccccc1,-7%,-6%
CC(=O)NC(Cc1ccc(C)cc1)C(=O)NC1CCN(S(=O)(=O)c2ccccc2)CC1 (configuration not stated),-11%,-9%
N#Cc1ccc(C23OCCN2CCn2c3c3ccccc3[n+]2[O-])cc1 (configuration not stated),4µM*,-26%
CCN(CC)CP(=O)(c1ccccc1)c1ccccc1,x,-4%
CC(CC(=O)N(C)C1CCCCC1)S(=O)(=O)c1ccc2c(c1)NC(=O)CO2 (configuration not stated),12%[7.34 µM],0%[7.34 µM]
Cc1ccc(CNC(=O)C23CN(Cc4ccccc4)CC2C(c2ccc([N+](=O)[O-])cc2)=NO3)o1 (configuration not stated),-8%,-22%
O=C1OCCC1Sc1nc2cc(Cl)ccc2n1Cc1ccccc1 (configuration not stated),x,-6%
Cn1c(SC/C=C/c2ccccc2)nnc1-c1ccco1,-27%[1.46 µM],-12%
CC(C)Oc1ccc(C(=O)NCCCNC(=O)c2cccnc2)cc1,i,-10%
O=S(=O)(Nc1cccnc1)c1cccc(C(F)(F)F)c1,i,-6%
O=C(NCC1CC1)c1ccc2c3n(nc2c1)-c1ccccc1CO3,-11%,-24%
Cc1ccc(N2CN(S(=O)(=O)c3cccc([N+](=O)[O-])c3)c3nc4ccccc4nc32)cc1,-12%,-11%
COc1ccc(C(N)c2csc(Nc3ccc(C(=O)c4ccccc4)cc3)n2)cc1 (configuration not stated),-2%,-12%
Cc1cc(-c2nc3ncccc3o2)ccc1NC(=O)c1ccc([N+](=O)[O-])o1,-14%,-6%
O=C(Nc1ccc(Cl)c(Cl)c1)OCc1cnc(Cl)s1,x,u
COc1ccc(C(=O)Nc2ccc(NC(=O)c3ccco3)c(Cl)c2)cc1OC,-7%,-8%
C=CCNC(=S)NCc1cccnc1,i,-10%
COc1ccc(/C=N/NC(=O)c2ccncc2)c(C(=O)O)c1OC,i,4%
CCOC(=O)/C=c1\s/c(=C\c2ccc(-c3ccccc3)cc2)c(=O)n1CC(=O)NCc1ccc2c(c1)OCO2,i,-17%
COC(=O)C1=NNC2(c3ccc(Cl)cc3)C(=O)N(c3ccccc3)C(=O)C12 (configuration not stated),-12%,-21%
CCCCCN(C(=O)CCC(=O)OCc1cc(C)ccc1C)c1c(N)n(CCCC)c(=O)[nH]c1=O,-6%,-28%
COc1ccc(N2CCN(C(=O)CSc3nc(-c4ccccc4)no3)CC2)cc1,-17%,-5%

# Compound profiles, from the list above.
# Entry for Cc1cccc2c(=O)c(C(=O)NCCc3ccccc3)c[nH]c12 = VACV mCherry inh: i; Vaccinia Venus: -8%
# Entry for O=C1NC(=S)NC1(c1ccccc1)c1ccccc1 = VACV mCherry inh: -17%; Vaccinia Venus: -8%

# Sorted by number of heavy atoms (ascending): part of the list above
SMILES,VACV mCherry inh,Vaccinia Venus
C=CCNC(=S)NCc1cccnc1,i,-10%
O=C(Nc1ccc(Cl)c(Cl)c1)OCc1cnc(Cl)s1,x,u
O=S(=O)(Nc1cccnc1)c1cccc(C(F)(F)F)c1,i,-6%
Cn1c(SC/C=C/c2ccccc2)nnc1-c1ccco1,-27%[1.46 µM],-12%
Cc1cc(-c2nnc(SCC(=O)NC3CC3)n2C(C)C)cs1,-4%,-17%
Cc1cccc2c(=O)c(C(=O)NCCc3ccccc3)c[nH]c12,i,-8%
O=C1OCCC1Sc1nc2cc(Cl)ccc2n1Cc1ccccc1 (configuration not stated),x,-6%
CC(C)Oc1ccc(C(=O)NCCCNC(=O)c2cccnc2)cc1,i,-10%
Cc1cc(-c2nc3ncccc3o2)ccc1NC(=O)c1ccc([N+](=O)[O-])o1,-14%,-6%
COc1ccc(C(=O)Nc2ccc(NC(=O)c3ccco3)c(Cl)c2)cc1OC,-7%,-8%
COc1ccc(N2CCN(C(=O)CSc3nc(-c4ccccc4)no3)CC2)cc1,-17%,-5%
COc1ccc(C(N)c2csc(Nc3ccc(C(=O)c4ccccc4)cc3)n2)cc1 (configuration not stated),-2%,-12%
CC(=O)NC(Cc1ccc(C)cc1)C(=O)NC1CCN(S(=O)(=O)c2ccccc2)CC1 (configuration not stated),-11%,-9%
Cc1ccc(N2CN(S(=O)(=O)c3cccc([N+](=O)[O-])c3)c3nc4ccccc4nc32)cc1,-12%,-11%
Cc1ccc(CNC(=O)C23CN(Cc4ccccc4)CC2C(c2ccc([N+](=O)[O-])cc2)=NO3)o1 (configuration not stated),-8%,-22%
CCCCCN(C(=O)CCC(=O)OCc1cc(C)ccc1C)c1c(N)n(CCCC)c(=O)[nH]c1=O,-6%,-28%
CCOC(=O)/C=c1\s/c(=C\c2ccc(-c3ccccc3)cc2)c(=O)n1CC(=O)NCc1ccc2c(c1)OCO2,i,-17%

# Later entries
SMILES,VACV mCherry inh,Vaccinia Venus
CCC(CC)C(=O)Nc1ccc(OCc2cc(=O)n3c4c(sc3n2)CCCC4)cc1,13%,-3%
O=C1N2CCSC2=NC1(Nc1nccs1)C(F)(F)F (configuration not stated),-17%,-16%
COc1ccc(OC)c(C(=O)N(C[C@H]2CC[C@@H]([C@@H]3CC[C@H](CO)O3)O2)C(C(=O)NC(C)(C)C)c2ccc(-c3ccccc3)cc2)c1 (some centres not stated),u,-9%
COc1ccc(NC(=O)N(C)C[C@H]2Oc3ncc(Br)cc3C(=O)N([C@H](C)CO)C[C@@H]2C)cc1,i,-5%
COc1cc(NC(=O)c2ccco2)c(OC)cc1NC(=O)Nc1ccccc1Cl,-5%,-8%
Cc1cc(C)nc(SCc2ccc([N+](=O)[O-])cc2)n1,-9%,-11%
CC(=O)NCCC1CCCCN1Cc1nc(Cc2cccc(C(F)(F)F)c2)no1 (configuration not stated),-2%,-3%
CC#C[C@@H](CC)c1ccc2ccn(C)c2c1,i,-5%
COCC1=C(C(=O)OC)C(c2cccs2)n2ncnc2N1 (configuration not stated),-2%,-6%
O=C(NCc1ccco1)c1cccc(Nc2nc3ccc(Br)cc3[nH]2)c1,-6%,-19%
O=C1c2ccccc2C(=O)N1Cc1nc2ccccc2c(=O)n1-c1ccc(Br)cn1,x,-22%
O=C(COc1ccccc1O)N1CCN(C(=O)c2ccco2)CC1,x,-19%
CNC(=O)COC(=O)c1cc(SC)ccc1Cl,i,-6%
O=C1NC(=Nc2ccccc2)SC1Cc1ccccc1 (configuration not stated),-13%,-3%
CCCOc1ccc(CNC(=O)CN2C(=O)c3cccnc3Oc3ccc(C)cc32)cc1,-14%,-15%
CCn1c(=O)c([N+](=O)[O-])c(NCC2CCCO2)c2ccccc21 (configuration not stated),i,-4%
Cc1ccc(-n2c(SCC(=O)NCc3ccc4c(c3)OCO4)nnc2-c2cccnc2)c(C)c1,i,-12%
Cc1cccc(Cn2nc(C(C)(C)C)cc2C(=O)Nc2ccc(F)cc2)c1,-22%[7.34 µM],11%[7.34 µM]
CNS(=O)(=O)c1cn(CC(=O)N2CCN(c3cccc(C)c3C)CC2)cc1S(=O)(=O)NC,-11%,-13%
C[C@H]1CN([C@@H](C)CO)S(=O)(=O)c2ccc(Br)cc2O[C@@H]1CN(C)Cc1ccccc1,u,u
Cc1cc(C)nc(SCc2cn3c(C)cccc3n2)n1,-18%,-9%
CSCCC(NC(=O)c1ccco1)C(=O)Nc1ccc(C)cn1 (configuration not stated),-13%,-10%
CCOc1cc(S(=O)(=O)n2ccc(C)n2)ccc1Br,7%,-16%
CCc1nn2c(=O)cc(COC(=O)CNC(=O)c3ccccc3)nc2s1,-3%,-5%
CC(=O)C1=C(c2ccc(Cl)c(Cl)c2)N(C(C)=O)n2c(C)nnc2S1,u,u

# Later entries:
SMILES,VACV mCherry inh,Vaccinia Venus
COc1ccc(CC(=O)Nc2c(C(=O)Nc3ccc(F)cc3)oc3ccccc23)cc1OC,-3%,2%
O=S(=O)(c1ccc(S(=O)(=O)N2CCN3CCCC3C2)cc1)N1CCCC1 (configuration not stated),i,-11%
C=CCNC(=S)/C(=C(/[O-])c1ccccc1Br)[n+]1ccccc1,-19%,0%
CCN(CC(=O)Nc1ccc(NC(C)=O)cc1)C(=O)C1CC1,-12%,-8%
COc1ccc(S(=O)(=O)Nc2cccc3c2O[C@H](CN(C)Cc2ccc(Cl)c(Cl)c2)[C@@H](C)CN([C@H](C)CO)C3=O)cc1,-23%,u
COc1ccc(-n2c(CN3CCOCC3)nc3ccc([N+](=O)[O-])cc3c2=O)c(OC)c1,-19%,1%
Cc1ccc(-c2nnc(CSc3nc4cc5c(cc4cc3C)OCO5)o2)cc1,-2%,2%
C#CCOCCOCCOCCNc1nc(N2CCN(C(=O)[C@H](Cc3ccc(O)cc3)n3cc(C(N)CC(C)C)nn3)CC2)nc(N2CCN(C(=O)[C@H](CCC(=O)O)n3cc(C(N)[C@H](C)CC)nn3)CC2)n1 (some centres not stated),i,-4%
Cc1cccc(C(=O)Nc2oc(-c3ccccc3)cc2C#N)c1,x,-17%
CCCCN1C(=O)CC2CCOC21C (configuration not stated),-7%,-6%

# Rows were taken by chance (roughly 0.82% active in at least one column).
